Screening data as filed in PubChem BioAssay.
MITF inh = MITF inhibition. inhibition, % (test concentration not listed). TRPM1 promoter luciferase, luminescence, 24 h. 0.28% of 37,000 active;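 active = most replicates at 85% or more, or half of them and the mean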;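 also: human melanocyte line stably carrying TRPM1 promoter luciferase reporter; 0% = vehicle wells and 100% = a positive control; the first replicate is given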
An asterisk follows results filed as active. The list is partial; count on the stated rates, not on these rows.

SMILES	MITF inh
Cc1cccc(OCC(=O)Nc2ccccc2C(=O)NC2CCCCC2)c1	-20
Nc1nc(-c2ccco2)nn1C(=O)c1ccco1	-2
Cc1cc(NC(=O)CN(c2ccc(Cl)cc2)S(C)(=O)=O)ccc1Br	-20
O=C(NCc1ccccn1)c1cc(-c2cccnc2)nc2ccc(Br)cc12	-75
COc1ccccc1CCNC(=O)c1cnccn1	14
Cc1cc(C)n(CC(O)Cn2c3ccccc3c3ccccc32)c(=O)n1 (stereo not given)	2
O=C(CC1(O)C(=O)N(CCc2ccccc2)c2ccc(Cl)cc21)c1ccco1 (stereo not given)	7
O=C(O)C1CCCCC1C(=O)Nc1ccc(C(=O)N2CCCCC2)c(Cl)c1 (stereo not given)	-3
COC(=O)c1c(-c2ccc(OC)c(OC)c2)csc1NC(=O)COc1ccccc1	-21
Cc1ccc(-c2noc(CSc3nnnn3-c3ccccc3)n2)cc1	-3
O=C(CSc1nnc(-c2ccncc2)n1-c1ccccc1Cl)Nc1ccc(C(=O)O)cc1	1
COc1ccc(S(=O)(=O)N(CC(=O)O)c2ccc(Cl)cc2)cc1	2
COC(=O)c1ccc(C)c(NC(=O)COc2ccccc2C)c1	-45
CC(Oc1cccc(NC(=O)c2ccccc2Cl)c1)C(=O)c1ccc(Cl)cc1 (stereo not given)	0
COc1ccc(NC(=O)CSc2nc3ccccc3c(=O)n2-c2ccc(C)cc2)cc1Cl	14
O=C(CC1(O)C(=O)N(Cc2ccc(Cl)cc2)c2ccc(Cl)cc21)c1ccccn1 (stereo not given)	24
COc1cc(C(=O)NC(C)C(=O)O)cc(OC)c1OC (stereo not given)	-9
O=C(CCCN1C(=O)c2cccc3cccc(c23)C1=O)Nc1ccccc1Br	-6
CC1CCc2c(sc(NC(=O)COc3cccc4ccccc34)c2C#N)C1 (stereo not given)	-14
O=C(CSc1nnnn1-c1ccccc1)Nc1ccc(-c2ccc([N+](=O)[O-])cc2)cc1	7
COC(=O)c1ccc(Cl)c(NC(=O)CSc2nnc(-c3ccc(Cl)cc3)o2)c1	14
Cc1ccccc1OCCn1c(C(O)c2ccccc2)nc2ccccc21 (stereo not given)	3
N#Cc1cc2c(nc1SCC(=O)Nc1ccc(Cl)cc1)CCCCCC2	-6
COc1ccccc1CC(=O)Nc1cc(OC)c(OC)cc1C(=O)O	-21
O=C1c2oc3ccccc3c(=O)c2C(c2ccc([N+](=O)[O-])cc2)N1CCCO (stereo not given)	-22
Cc1ccc([N+](=O)[O-])cc1S(=O)(=O)NCc1cccnc1	-3
COc1ccccc1NC(=O)C1=C(C)Nc2nnnn2C1c1ccccc1OC (stereo not given)	-4
O=C(NCCN1CCOCC1)c1cccc(S(=O)(=O)N2CCCCCC2)c1	8
COc1ccc(-n2c(SCC(=O)c3ccc(Cl)cc3)nnc2-c2ccccc2)cc1	4
O=C(CSCc1ccccc1Br)Nc1cccnc1	-12
COc1cc(C(=O)Oc2ccccc2NC2=NS(=O)(=O)c3ccccc32)cc(OC)c1OC	-4
COc1cc(CO)cc(Cl)c1OCC(=O)Nc1ccccc1F	-21
Cc1cc(-c2nc3ccccc3s2)ccc1NC(=O)COc1ccccc1[N+](=O)[O-]	-82
CCn1c(SCC(=O)Nc2ccccc2OC)nnc1-c1ccc(Br)cc1	3
Nc1cc(N)nc(SCC(=O)Nc2cccc(C(F)(F)F)c2)n1	10
Cc1cc(C(F)(F)F)nn1CCCNC(=O)c1cc(-c2cccnc2)nc2ccc(Cl)cc12	13
CC(C)(C)c1ccc(C(=O)Nc2nonc2-c2nc3ccccc3[nH]2)cc1	-16
CC(C)N(CCC#N)S(=O)(=O)c1ccccc1[N+](=O)[O-]	-15
Cn1c(=O)c2c(nc(N3CCOCC3)n2CCCN)n(C)c1=O	-37
COc1ccc(C(=O)Nc2cc(C)ccc2NC(=O)COc2ccccc2)cc1	-4
COc1cccc(NC(=O)c2cc([N+](=O)[O-])ccc2NC(=O)CN2CCCCCC2)c1	38
O=C(NCC1CCCO1)C1CC(c2ccccc2O)=NO1 (stereo not given)	3
Cn1c(=O)c2c(nc(SCC(N)=O)n2Cc2ccccc2F)n(C)c1=O	5
CC(C)(O)C#Cc1ccccc1C(=O)NC(Cc1c[nH]c2ccccc12)C(=O)O (stereo not given)	9
COc1ccc(NC(=O)CSc2nc3c(c(C(F)(F)F)c2C#N)CCC3)c(OC)c1	-24
O=C(CSc1nc(O)cc(=O)n1-c1ccccc1F)Nc1ccc(Cl)cc1Cl	2
Cn1c(SCC(=O)Nc2ccccc2Cl)nnc1-c1ccc(Br)cc1	3
CCN(CC(=O)Nc1cccc(C(F)(F)F)c1)S(=O)(=O)c1ccc(C)cc1	9
Cc1ccc(S(=O)(=O)NC(C)C(=O)Nc2ccc(Br)cc2)cc1 (stereo not given)	10
O=C1OCCC1Sc1nnc(-c2ccccc2[N+](=O)[O-])o1 (stereo not given)	7
NC(=O)CSc1ncnc2scc(-c3ccc(Cl)cc3)c12	49
O=C(COc1ccccc1Cl)Nc1ccccc1[N+](=O)[O-]	-44
Cc1cc(Cl)ccc1OCC(O)CN1CCC(CN2C(=O)c3cccc4cccc(c34)C2=O)CC1 (stereo not given)	1
CCn1c(SCC(=O)Nc2ccccc2OC)nnc1-c1c[nH]c2ccccc12	4
Cc1cc(=O)[nH]c(SCCOc2ccc3c(c2)CCC3)n1	-65
Cc1ccc(S(=O)(=O)NC(C)C(=O)Nc2c(F)cccc2F)cc1 (stereo not given)	-14
COC(=O)c1ccccc1NC(=O)C1CC(c2ccc(Cl)c(Cl)c2)=NO1 (stereo not given)	32
CCc1ccc(O)c(NC(=S)NC(=O)COc2ccc(C)cc2C)c1	47
COc1ccccc1NC(=O)C1=C(C)Nc2nc(-c3ccccc3)nn2C1c1ccccn1 (stereo not given)	-9
c1ccc2c(c1)n(CCN1CCOCC1)c1nc(C34CC5CC(CC(C5)C3)C4)cn21	-3

(more compounds)
SMILES	MITF inh
COC(=O)Cc1cc(=O)n(-c2nc3ccccc3[nH]2)[nH]1	-4
CC(C)C(=O)Nc1ccc(C(=O)NCc2ccco2)cc1	-8
Cc1cccc(-c2nnc(SCC(=O)Nc3c(Cl)cc(Cl)cc3Cl)o2)c1	8
CCOC(=O)Cc1[nH]nc2c1C(C(C)C)C(C#N)=C(N)O2 (stereo not given)	10
COC(=O)c1ccccc1NC(=O)CNC(=O)c1ccccc1F	-30
Cc1ccc(C2CC(=O)c3cnc(NCCN4CCOCC4)nc3C2)cc1 (stereo not given)	-6
CC(C)N(Cc1nc(-c2ccc(Cl)cc2)no1)S(=O)(=O)c1ccc(F)cc1	23
COc1ccccc1OCc1nc2c3c(-c4ccccc4)c(-c4ccccc4)oc3ncn2n1	4
CCn1c(SCC(=O)Nc2c(Cl)cc(Cl)cc2Cl)nnc1-c1ccccc1Cl	-3
COc1ccc(C(=O)CCC(=O)Nc2ccc(Br)cc2)cc1	-12
CCn1c(SCC(=O)O)nc2sc3c(c2c1=O)CC(C)(C)OC3	5
O=C(Cn1cnc2sc(-c3ccccc3)cc2c1=O)NCc1ccco1	-8
Cc1c(Cl)cccc1NC(=O)CSc1nnc(-c2ccc(Cl)c(Cl)c2)n1C	-2
COC(=O)C(CC(=O)c1ccc(Cl)cc1)c1cc(=O)oc2cc(OC)ccc12 (stereo not given)	-19
COc1ccc(-c2nnc(SCC(=O)Nc3cccc(SC)c3)n2C)cc1	11
Cc1ccc(NC(=O)c2ccc(OC(C)C(=O)Nc3ccccc3)cc2)cc1 (stereo not given)	4
O=C(CSc1nnc(-c2cccc(F)c2)n1-c1ccccc1)Nc1ccc(F)cc1	7
O=C(NCc1cccnc1)c1cc(-c2ccccc2)on1	-60
CCOC(=O)c1sc2ncn(CC(=O)Nc3cccc(Br)c3)c(=O)c2c1C	14
CS(=O)(=O)N(CC(=O)NC1CC2CCC1C2)c1cc(Cl)c(Cl)cc1Cl (stereo not given)	-2
COC(=O)c1cc(C)sc1NC(=S)Nc1ncn(Cc2ccc(F)cc2Cl)n1	-7
Cc1ccc2c(C)nc(Nc3nc(CSc4nnc(C)s4)cc(=O)[nH]3)nc2c1	33
COc1ccc(C(=O)CSc2n[nH]c(-c3ccc(C)cc3)n2)cc1	-37
COc1ccc(C)cc1S(=O)(=O)N(C)CC(=O)NC1CCCC1	3
CS(=O)(=O)N(CC(=O)Nc1cc(C(F)(F)F)ccc1Cl)c1ccccc1Br	-2
Cn1c(=O)c2c(ncn2CC(O)CNc2ccc(Cl)cc2)n(C)c1=O (stereo not given)	-8
Cc1ccccc1NC(=O)CSc1nc(N)c(C#N)cc1C#N	-14
O=C(Cn1cnc2scc(-c3ccccc3)c2c1=O)Nc1cc(Cl)cc(Cl)c1	21
COc1cccc(C2CC(c3ccccc3OC)n3nc(N)nc3N2)c1 (stereo not given)	-11
CCN(CC(=O)Nc1ccc(OC)c(Cl)c1)S(=O)(=O)c1ccc2ccccc2c1	44
COc1ccccc1NC(=O)c1ccc(CSc2nnnn2-c2ccccc2)cc1	-13
CCOC(=O)Nc1ccc2c(c1)N(C(=O)CN1CCN(C)CC1)c1ccccc1CC2	14
Cc1ccccc1NC(=O)CSc1cc(C)c2ccccc2n1	1
CCOC(=O)c1c(-c2ccc(C)o2)csc1NC(=O)CN1C(=O)c2ccccc2C1=O	-4
COc1ccc(OCC(=O)Nc2ccc3c(c2)C(=O)NC3=O)cc1	-4
CCN1CCN(C(=O)CN(c2cccc([N+](=O)[O-])c2)S(C)(=O)=O)CC1	-12
Cc1cc(C)c(S(=O)(=O)N(C)CC(=O)O)c(C)c1	-4
COc1ccc(NC(=O)CCCC(=O)O)cc1	-6
O=C(CSc1nnc(-c2cccnc2)n1-c1ccc(Br)cc1)c1ccc(F)cc1	-10
O=C(CSc1nc(O)cc(=O)n1-c1ccccc1)Nc1ccccc1Cl	-3
CCn1c(SCC(=O)Nc2sc3c(c2C#N)CCCC3)nnc1-c1cccc(Cl)c1	-12
COc1ccc(CN2C(=O)C(O)(CC(=O)c3ccc(Cl)s3)c3ccccc32)cc1OC (stereo not given)	1
CC(=O)COc1cc(OCC(C)=O)c2c(C)cc(=O)oc2c1	7
Cc1ccc(S(=O)(=O)NCCSc2nncn2C)cc1	-4
CCOc1ccc(Cl)cc1S(=O)(=O)n1cnc2cc(C)c(C)cc21	-20
O=C(Cn1cnc2sc(-c3ccccc3)cc2c1=O)Nc1ccccc1	-2
CCC1(C)Cc2c(sc3nc(SC)nc(SCC(=O)OC)c23)CO1 (stereo not given)	-35
CS(=O)(=O)N(CC(=O)Nc1ccc(Br)cc1F)c1ccc(F)c(Cl)c1	-12
CCn1c(SCC(=O)Nc2cccc(C(F)(F)F)c2)nnc1-c1ccc(C)cc1	48
CCc1c(C)sc(NC(=O)c2cc(-c3cccnc3)nc3ccc(Cl)cc23)c1C(=O)N1CCOCC1	4
COc1ccc(C(=O)NCCNc2ccc([N+](=O)[O-])cc2C(F)(F)F)cc1	10
COc1ccc(NC(=O)C2(c3ccc(NC(=O)c4ccc(OC(C)=O)cc4)cc3)CCCC2)cc1	1
O=C(NCCCN1CCCC1=O)c1cc(-c2cccnc2)nc2ccc(Br)cc12	-20
Cc1ccc(-n2c(C)nnc2SCC(=O)Nc2ccc(Cl)cc2Cl)cc1	26
COc1ccc(CCNc2cc(C)c3cccc(OC)c3n2)cc1OC	-4
Cc1ccc(CCC(=O)Nc2cc(Cl)ccc2Cl)o1	7
O=c1[nH]c(NCCCO)nc2c1C1(CCCC1)Cc1ccccc1-2	0
CC1(C)Cc2c(sc3nc(SCC(=O)O)[nH]c(=O)c23)CO1	0
Cc1cc(C)nc(N(C#N)C(C(=O)c2ccccc2)c2ccccc2)n1 (stereo not given)	2
Cn1c(SCC(=O)Nc2cccc(Br)c2)nnc1-c1cc2ccccc2o1	-23

Ordered by molecular weight (highest first): 16 of the compounds above
SMILES	MITF inh
CCc1c(C)sc(NC(=O)c2cc(-c3cccnc3)nc3ccc(Cl)cc23)c1C(=O)N1CCOCC1	4
COc1ccc(NC(=O)C2(c3ccc(NC(=O)c4ccc(OC(C)=O)cc4)cc3)CCCC2)cc1	1
COc1ccc(CN2C(=O)C(O)(CC(=O)c3ccc(Cl)s3)c3ccccc32)cc1OC (stereo not given)	1
CS(=O)(=O)N(CC(=O)Nc1ccc(Br)cc1F)c1ccc(F)c(Cl)c1	-12
O=C(NCCCN1CCCC1=O)c1cc(-c2cccnc2)nc2ccc(Br)cc12	-20
Cn1c(SCC(=O)Nc2cccc(Br)c2)nnc1-c1cc2ccccc2o1	-23
CCn1c(SCC(=O)Nc2cccc(C(F)(F)F)c2)nnc1-c1ccc(C)cc1	48
Cc1ccc(-n2c(C)nnc2SCC(=O)Nc2ccc(Cl)cc2Cl)cc1	26
CCC1(C)Cc2c(sc3nc(SC)nc(SCC(=O)OC)c23)CO1 (stereo not given)	-35
CCOc1ccc(Cl)cc1S(=O)(=O)n1cnc2cc(C)c(C)cc21	-20
O=C(Cn1cnc2sc(-c3ccccc3)cc2c1=O)Nc1ccccc1	-2
COc1ccc(CCNc2cc(C)c3cccc(OC)c3n2)cc1OC	-4
Cc1cc(C)nc(N(C#N)C(C(=O)c2ccccc2)c2ccccc2)n1 (stereo not given)	2
CC1(C)Cc2c(sc3nc(SCC(=O)O)[nH]c(=O)c23)CO1	0
Cc1ccc(S(=O)(=O)NCCSc2nncn2C)cc1	-4
CC(=O)COc1cc(OCC(C)=O)c2c(C)cc(=O)oc2c1	7

Additional compounds
SMILES	MITF inh
COc1ccccc1CC(=O)Nc1ccc(-c2nnc(-c3ccccc3)o2)cc1	-31
NC(=O)C1CCN(C(=O)CSc2nc3ccccc3[nH]2)CC1	-17
COc1ccc([N+](=O)[O-])cc1NC(=O)CN(C)S(=O)(=O)c1ccc(C)cc1	-5
CCCC(=O)c1ccc(OCc2nc3ccccc3[nH]2)cc1	45
O=C(CN1C(=O)c2ccccc2C1=O)Oc1ccc(C(=O)Nc2ccccc2)cc1	-60
CCn1c(SCC(=O)N2c3ccccc3Sc3ccccc32)nnc1-c1cc(OC)cc(OC)c1	13
COCC(C)NCc1ccc(OC)c(OC)c1OC (stereo not given)	1
O=C(Nc1cccnc1)C1CC(c2ccccc2O)=NO1 (stereo not given)	-15
O=[N+]([O-])c1ccc2nc(CSc3nc4ccccc4[nH]3)[nH]c2c1	-9
Cc1ccc2c(c1)nc(NCCCO)n2C	-12
